Screening data: PubChem, National Center for Advancing Translational Sciences (NCATS)
Vaccinia mCherry: inhibitors of vaccinia virus infection (mCherry reporter signal) | Vaccinia virus mCherry reporter infection, fluorescence; about a quarter of the inactives have no number | Potency, µM (doses to about 36.5 µM), for the others: at the top dose activity change, negative = inhibition, hits mostly inhibitors | hit rate 0.63% among 310,000; active = well fitted inhibition curve with a large enough effect; inconclusive = small, poorly fitted or top-dose-only effect; inactive = no such curve, though single readings can be large or run the other way; tested in A549 cells; also: nearly all actives have a fitted effect of over 35% in size; inactives centre near -10
VACV Venus inh: inhibitors of vaccinia virus (Venus reporter). Vaccinia virus Venus reporter expression, fluorescence. hit rate 0.46% among 330,000. Potency, µM (highest dose often 36.5 µM), for the others: at the top dose activity change, negative = inhibition, most hits filed as inhibitors; active means well fitted inhibition curve with a large enough effect; inconclusive means small, poorly fitted or top-dose-only effect; inactive means no such curve, though single readings can be large or run the other way; tested in A549 cells; also: nearly all actives have a fitted effect of over 30% in size; inactives centre near -10
Active calls of the source: *; i = inactive; ? = inconclusive; nt = no result given; & = joins results of further samples; [ ] = remark or other dose. % is scaled to controls: 0 for no effect and ±100 for the full control effect; potency is read from the fitted curve at half-maximal effect. This is a random part of the collection, and some 0.87% of all compounds hit somewhere here.

SMILES	Vaccinia mCherry	VACV Venus inh
O=C(N/N=C/c1cc([N+](=O)[O-])cc([N+](=O)[O-])c1O)/C(=C\c1cccs1)NC(=O)c1ccccc1	-4%	16%
COc1cccc(CC(=O)n2nc(N)c3cc4ccc(OC)cc4nc32)c1	?	-23%
COc1cccc(CNC(=S)Nc2ccc3c(c2)c(=O)n(C)n3Cc2csc(C)n2)c1	-2%	-1%
CC(C(=O)N(C1CC1)C1(C(=O)Nc2ccccc2)CCCC1)N1C(=O)c2ccccc2C1=O (centres undefined)	-14%	-11%
Cc1cc(OCC(=O)NCC2CCC(C(=O)O)CC2)c2c(C)c(Cc3ccccc3)c(=O)oc2c1 (centres undefined)	-4%	4%
CC1CN(C(=O)c2cccc(S(=O)(=O)Nc3ccccc3Cl)c2)CC(C)O1 (centres undefined)	i	-10%
COc1ccccc1CCNC(=O)c1ccc(NC(=O)N2CC(C)Sc3ccccc32)cc1 (centres undefined)	-18%	-18%
CC(C)NC(=O)NC(=O)COc1ccc(Br)cc1Br	-12%	-20%
COc1ccc(Nc2oc(COc3cccc(C)c3)nc2C#N)cc1	-19%	-9%
Cc1ccc(C)c(OCc2nnc(N)s2)c1	nt	-6%
CCN(C(=O)c1nn(C)c2c1CSc1ccccc1-2)c1cccc(C)c1	-13%	-4%
O=[N+]([O-])c1cccc(Nc2nc(Cl)nc(Cl)n2)c1	i	-1%
O=C1NCCN(Cc2ccoc2)C1CC(=O)N(CCO)Cc1ccccc1 (centres undefined)	-22%	-1%
CCCNC(=O)CCn1cc(-c2ccc(OC)cc2)nc1CCN	i	-5%
c1ccc(-c2cnc(-c3cccnc3)o2)cc1	-5%	-17%
COc1ccc(CCC(=O)N2CCN(S(=O)(=O)c3cccs3)CC2)cc1	-14%	-5%
O=C(Nc1cccc(Cl)c1)c1cc2c(=O)[nH]c3ccccc3c2s1	2%	-1%
Cn1c(=O)c2nc(SCc3ccccc3)n(C)c2n(C)c1=O	i	-4%
COCCN(C(=O)CSc1nnc(C)n1Cc1ccccc1)c1c(N)n(CC(C)C)c(=O)[nH]c1=O	5%	6%
Cc1csc(=O)n1CC(=O)OCC(=O)NNC(=O)c1ccc([N+](=O)[O-])cc1	i	-7%
O=C(O)Cn1c2ccccc2c2nc3ccccc3nc21	-5%	-13%
CCNC(=O)COC(=O)c1cc(C)n(-c2ccccc2)c1C	i	-9%
COc1ccc([C@H]2CC(=O)C=C(c3ccc(-c4ccccc4)cc3)C2)cc1OC	i	-28%
CCOC(=O)/C=c1\s/c(=C\c2ccc3cc(OC)ccc3c2)c(=O)n1CC(=O)NCc1ccc2c(c1)OCO2	-8%	7%
CCCCOC(=O)CSc1nc2c(cc1C#N)C(=O)CC(C)(C)C2	-15%	-12%

The list continues:
SMILES	Vaccinia mCherry	VACV Venus inh
Cc1cccc(C)c1NS(=O)(=O)c1c(C(=O)N2CCCCC2)c(C)n(C)c1C	i	-4%
CN(C)CCCOC(=O)c1ccccc1	i	-1%
O=C(Cn1cc(S(=O)(=O)Cc2ccccc2Cl)c2ccccc21)NCc1ccccc1Cl	-11%	-8%
C[C@@H]1Cn2cnc(C(=O)Nc3cccc(Cl)c3)c2C(=O)N1	-30%	?
CN1CCN(C(=S)c2cn(CCOc3ccccc3F)c3ccccc23)CC1	i	-12%
CC(C)CNC(=O)c1cccc(NC(=O)C2CCCO2)c1 (centres undefined)	nt	-11%
COc1ccc(Nc2cc(C(=O)NCCCN3CCN(C)CC3)c3ccccc3n2)cc1OC	-17%	-15%
COC(=O)CN(c1ccccc1OC)S(=O)(=O)c1ccccc1	i	-11%
CCc1nnc(NC(=O)c2cc(=O)c3cc(C)ccc3o2)s1	-10%	0%
COc1cccc(CN(C)CC(=O)NCc2ccccc2Cl)c1OC	-4%	-12%
CC(C)(C)NC(=O)C1c2ccccc2OCC(=O)N1Cc1ccccc1 (centres undefined)	5%	0%
COC(=O)c1sccc1NC(=O)Cn1nnc(-c2ccccc2C)n1	-10%	-18%
CCc1ccc(NC(=O)CCc2nnc3n(C)c(=O)c4sccc4n23)cc1	-6%	-7%
CCOc1ccc(CN2CCN(Cc3cccc4c3OCO4)CC2CCO)cc1 (centres undefined)	?	-2%
COc1ccc(C(=O)NC2(C(F)(F)F)C(=O)Nc3c2c(=O)[nH]c(=O)n3CCc2ccc(OC)c(OC)c2)cc1 (centres undefined)	-1%	-5%
Cn1ccc2c(-c3ccc(C(C)(C)C)cc3)cc3c(c21)C1CCC3O1 (centres undefined)	3%	0%
CCN(CC)c1ccc(N=Cc2ccc([N+](=O)[O-])o2)cc1	?	?
CCc1cc2cc3c(cc2nc1SCC(=O)Nc1nccs1)OCO3	i	-11%
CCOc1cccc2sc(NC(=O)CS(=O)(=O)c3ccc(C)cc3)nc12	-14%	-15%
CCN(C(=O)CSc1cccc[n+]1[O-])c1ccccc1	-16%	-6%
CC(C)C[C@H](NC(=O)N1CC(=O)Nc2ccccc21)C(=O)N[C@H](Cc1ccccc1)C(=O)O	3%	5%
Cc1ccc(CC(=O)N2CCOCC2)cc1	i	-9%
COc1ccc(NC(=O)c2ccc(C)cc2Cl)c([N+](=O)[O-])c1	nt	-15%
Cn1c(=O)c2c(-c3cccc(Br)c3)c(C#N)c(N)nc2n(C)c1=O	-16%	-11%
C[C@H](NC(=O)c1nc[nH]c1C(=O)NCCCCCNC(=O)OC(C)(C)C)c1ccccc1	?	?

(listing goes on)
SMILES	Vaccinia mCherry	VACV Venus inh
COc1ccc(OCc2nc(-c3ccc(OC)c(OC)c3)no2)cc1	5%	0%
COc1ccc(CCN2C(=O)N(c3ccc(F)cc3)C(=O)C2CC(=O)Nc2ccc(F)c(F)c2)cc1 (centres undefined)	-5%	-13%
CC(C)(C)C(=O)Cn1c(=N)n(Cc2ccccc2Cl)c2ccccc21	-7%	-24%
NC(N)=N/N=C/c1ccc(Br)cc1	-21%	?
CCOC(=O)c1cc2c(n(-c3ccc(Cl)cc3)c1=O)CCCC2=O	-12%	-7%
Cc1cc(C)cc(OCC(=O)NNC(=O)CN2C(=O)c3ccccc3C2=O)c1	-16%	-19%
Cc1ccccc1NC(=O)c1nc[nH]c1C(=O)NCc1ccccc1	?	?
O=C(Nc1ncnc2sc3c(c12)CCCC3)c1ccncc1	i	-3%
CS(=O)(=O)N1CCc2cc(S(=O)(=O)N3CCN(Cc4ccc5c(c4)OCO5)CC3)ccc21	-26%	-21%
Cc1ccc(SCCNC(=O)c2ccc(C)c(S(=O)(=O)Nc3cccc(C)c3)c2)cc1	-5%	-10%
Cc1cccc(NC(=O)Cn2cc([N+](=O)[O-])cn2)n1	i	-6%
CCN(CC)CCCNC(=O)c1ccc2c(c1)sc1nc(-c3ccc(C)cc3)cn12	?	?
COc1ccc2c(=O)c(-c3ccccc3)coc2c1	4%	-7%
O=C(O)c1ccc2c(=O)n3c(nc2c1)/C(=C/c1cccc(Cl)c1Cl)CCCC3	0%	-17%
Cc1ccc(S(=O)(=O)N(CC(=O)Nc2ccc(Cl)c([N+](=O)[O-])c2)C2CCCCC2)cc1	?	?
c1ccc(-c2nc(C3CCCCC3)c3ccccc3n2)cc1	-23%	-6%
COc1ccc(-c2oc(/N=C/N3CCCC3)c(C#N)c2-c2ccc(OC)cc2)cc1	nt	-11%
NC(=O)C1(c2ccccc2)CCC(=O)N1c1ccccc1 (centres undefined)	-3%	-4%
COc1cc2ccccc2cc1C(=O)NC(=S)Nc1nnn(C)n1	-16%	-7%
COc1ccc(CNC(=O)c2ccc(Cl)c(S(=O)(=O)N3CCCCCC3)c2)cc1	-11%	-24%
N#CC[C@H](c1ccccc1)N1CCN(Cc2ccccc2)CCC1=O	-10%	-13%
O=C1NC(=Nc2cccc(Cl)c2)SC1Cc1cccc(Cl)c1Cl (centres undefined)	-4%	-16%
COc1ccc(CN(C)C(=O)CNC(=O)CNC(=O)c2ccc(Cl)cc2Cl)cc1F	-6%	-2%
CN(C)CC(C)(O)c1ccc2c(c1)CN(Cc1cccn1-c1ncccn1)CCO2 (centres undefined)	-6%	4%
COc1ccccc1N(CC(=O)Nc1ccccc1C(=O)NC(C)C)S(C)(=O)=O	-12%[1.46 µM]	-11%

Four records picked at random from those above, as already listed:
SMILES	Vaccinia mCherry	VACV Venus inh
O=C(O)c1ccc2c(=O)n3c(nc2c1)/C(=C/c1cccc(Cl)c1Cl)CCCC3	0%	-17%
NC(N)=N/N=C/c1ccc(Br)cc1	-21%	?
COc1ccc(-c2oc(/N=C/N3CCCC3)c(C#N)c2-c2ccc(OC)cc2)cc1	nt	-11%
Cc1ccc(S(=O)(=O)N(CC(=O)Nc2ccc(Cl)c([N+](=O)[O-])c2)C2CCCCC2)cc1	?	?

The results go on:
SMILES	Vaccinia mCherry	VACV Venus inh
O=S(=O)(NCc1ccc(Cl)cc1)c1ccc(Cl)nc1	nt	-25%
CNc1ccc([N+](=O)[O-])cc1-c1nc2ccccc2[nH]c1=O	i	-15%
COc1cccc(C(=O)OCC(=O)Nc2cc(C)c(C)cc2[N+](=O)[O-])c1	-10%	-12%
CC(=O)N1CCN(c2ccc(S(=O)(=O)NCCN(C(C)C)C(C)C)cc2[N+](=O)[O-])CC1	i	-11%
C[C@H](NC(=O)c1ccccc1Cl)C(=O)OCCOc1cccc(Cl)c1	-14%	-8%
CCCC(=O)Nc1ccc2c(c1)COC2=O	-4%	-4%
COc1ccc(-c2nc3cc(C)ccn3c2NC(=O)c2ccc(C)c(C)c2)cc1	-8%	-5%
O=C(Cn1cnc2ccccc21)Nc1ccc(C(=O)O)cc1	-12%	-8%
Cc1ccc(-c2nc(CSCC(=O)NCC3CCCO3)c(C)o2)cc1 (centres undefined)	?	-26%
Cn1c2ccccc2c2nnc(SCC(=O)NC3CCCC3)nc21	43%[activator]	1%
CCN1CCN(c2c(S(=O)(=O)c3ccc(Cl)cc3)cnc3ccccc23)CC1	-23%	-13%
CCOC(=O)c1ccccc1NC(=O)CSc1nccn1C	nt	-17%
COc1ccc(-c2nc3c(c(SCC(=O)Nc4ccccc4OC)n2)Cc2cccc(C)c2O3)cc1	-11%	-11%
Cc1ccc(C(=O)COC(=O)c2cc(-c3ccccc3)nc3ccccc23)cc1C	1%	-5%
Cc1cc(Nc2ccccc2F)n2ncnc2n1	-3%	-6%
Cc1cccc(-n2ccnc2SCC(=O)Nc2ccc(F)cc2F)c1C	-18%	-5%
O=C(CSc1ncnc2ccccc12)NCc1ccco1	nt	-10%
O=C(Cc1ccc(S(=O)(=O)N2CCOCC2)s1)N1CCN(S(=O)(=O)c2cccc([N+](=O)[O-])c2)CC1	i	-9%
COc1cccc(NC(=O)C(=O)N2CCOCC2)c1	nt	-2%
CP(C)(=O)CCP(=O)(c1ccccc1)c1ccccc1	-5%	6%
COc1ccc(C(=O)Nc2ccc3c(c2)C(=O)N(C)C3=O)cc1OC	-6%	-13%
CSc1snc(SCC(N)=O)c1C#N	nt	-2%
CC1(C)Cc2nc(NCCCO)c(C#N)cc2CO1	-5%	-8%
COC1=CC(=O)C(C(=O)c2ccccc2)=CC1=O	i	0%
CCCC(=O)Nc1cc(OC)c(OC)cc1C(=O)O	i	3%

Continued.
SMILES	Vaccinia mCherry	VACV Venus inh
COc1ccc(NC(=O)c2cc(C(C)=O)n3ccccc23)cc1Cl	-16%	-12%
CCOc1ccc(CN(C)C(=O)c2ccc(=O)[nH]c2)cc1	i	-6%
O=c1c2ccccc2n(CC(O)CN2CCCCC2)c2ccccc12 (centres undefined)	21%	-4%
COc1ccc(CN(C)C(=O)C2CSC3(C)CCC(=O)N23)cc1 (centres undefined)	-22%	4%
Nc1cncc(C(=O)O)c1	?	-20%&-1%
CC(=O)Nc1cccc(-c2cc3c(c4c2ccn4C)C2CCC3O2)c1 (centres undefined)	3%	-2%
Cc1ccc(N2CCN(S(=O)(=O)c3ccc(F)c(C)c3)CC2)c(C)c1	nt	-26%
COC(=O)c1ccc(S(=O)(=O)N2CCCN(Cc3ccccc3)CC2)n1C	-23%	-14%
Cc1ccc(OCCCCCN2CCOCC2)cc1	i	-10%
CC(=O)c1nn(-c2ccc(Cl)cc2)cc1C(=O)c1ccccc1	-5%	5%
Cc1cc(C=O)c(C)n1-c1sc2c(c1C(=O)O)CCCC2	i	-1%
CCCCCC(=O)NC(=S)Nc1cccc(-c2nc3ncccc3o2)c1	-5%	-9%

Compounds from the list above containing an aryl thioether with sulfur outside any ring (12):
SMILES	Vaccinia mCherry	VACV Venus inh
Cn1c(=O)c2nc(SCc3ccccc3)n(C)c2n(C)c1=O	i	-4%
COCCN(C(=O)CSc1nnc(C)n1Cc1ccccc1)c1c(N)n(CC(C)C)c(=O)[nH]c1=O	5%	6%
CCCCOC(=O)CSc1nc2c(cc1C#N)C(=O)CC(C)(C)C2	-15%	-12%
CCc1cc2cc3c(cc2nc1SCC(=O)Nc1nccs1)OCO3	i	-11%
CCN(C(=O)CSc1cccc[n+]1[O-])c1ccccc1	-16%	-6%
Cc1ccc(SCCNC(=O)c2ccc(C)c(S(=O)(=O)Nc3cccc(C)c3)c2)cc1	-5%	-10%
Cn1c2ccccc2c2nnc(SCC(=O)NC3CCCC3)nc21	43%[activator]	1%
CCOC(=O)c1ccccc1NC(=O)CSc1nccn1C	nt	-17%
COc1ccc(-c2nc3c(c(SCC(=O)Nc4ccccc4OC)n2)Cc2cccc(C)c2O3)cc1	-11%	-11%
Cc1cccc(-n2ccnc2SCC(=O)Nc2ccc(F)cc2F)c1C	-18%	-5%
O=C(CSc1ncnc2ccccc12)NCc1ccco1	nt	-10%
CSc1snc(SCC(N)=O)c1C#N	nt	-2%
